Screening results from PubChem.
BJeLR lethal = kills HRASV12-expressing BJeLR cells. actives 0.17% (n = 300,000). inhibition, % (test concentration not listed). AID 1554. BJeLR (HRASV12) viability, CellTiter-Glo ATP luminescence, 48 h; reference of the scale not given here;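 active = replicate mean above 50%; inconclusive = above 50% but judged a plate artefact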;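 also: 50 nL library stock added to about 25 µL; numbers are from one replicate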
RN4220 kill = S. aureus RN4220 growth inhibition | OD600, 16 h | inhibition, % (no concentration beside the values) | actives 0.33% (n = 330,000);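 active = z-score of -3 or lower and OD600 up to 0.18 on both plates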;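 also: plate controls were untreated cells for no effect and reference antibiotic for full effect; stock transfer was 100 nL into about 80 µL; one replicate is shown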
Mtb hypoxia inh = reduces hypoxia-regulated biosensor signal in M. tuberculosis | M. tuberculosis hypoxia-regulated fluorescent reporter, fluorescence | fluorescence inhibition, % (concentration not given with the values) | actives 0.1% (n = 300,000);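 active = 35 to 45% if threefold the growth effect, above 45% if 1.5-fold the growth effect; inactive = the rest, general growth blockers included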;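 also: wells of about 50 µL received 100 nL stock; 0% = vehicle wells and 100% = reference inhibitor wells; whole bacteria with a GFP reporter of the hypoxia response; strong numbers were not always called active; many hits fall short of the cut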
ugtP null kill = growth inhibition of S. aureus ugtP deletion strain. S. aureus RN4220 ugtP deletion, OD600 growth, 16 h; some inactives read as strong as hits. growth inhibition, % (concentration not given with the values). actives 0.54% (n = 330,000). AID 1259309;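 active = z-score under -3 and OD600 up to 0.15 on both plates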;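 also: plate controls were untreated wells for no effect and antibiotic for full effect; wells of about 80 µL received 100 nL stock; the first replicate is given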
Bead autofluor = flagged as autofluorescent in microsphere protease counterscreen. compound autofluorescence counterscreen, microsphere flow cytometry; hits give high values. fluorescence intensity (no concentration beside the values). actives 3.1% (n = 360,000);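 active = at least 3 SD above the mean of all compounds, about 16000 in these data; inconclusive = too few beads counted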;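 also: 100 nL of 1 mM stock went into each well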
PrP 5UTR inh = suppresses PrP 5' UTR mRNA reporter expression | cell-based PrP 5' UTR mRNA reporter, plate reader | inhibition, % (concentration not given with the values) | actives 0.35% (n = 340,000);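 active = every replicate at 50% or more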;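 also: 0 = median of the neutral control wells; tested in H4 reporter cells; numbers are from one replicate; inactives centre near -14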
Mtb hypoxia inh growth = second read-out of Mtb hypoxia inh, no call of its own (marks repeat the call); growth inhibition, %; measured here: M. tuberculosis growth (absorbance);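 0% = vehicle and 100% = reference antibiotic; read after six days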
* hit, by the source's call; ? = inconclusive; · = not tested or not shown.

SMILES	Bead autofluor	Mtb hypoxia inh growth	ugtP null kill	Mtb hypoxia inh	PrP 5UTR inh	BJeLR lethal	RN4220 kill
Fc1ccc(-n2c(CN3CCCCC3)n[nH]c2=S)cc1	4661	11	-8	-11	5	9	-2.1
O=C(c1cccnc1)N1CCN(S(=O)(=O)c2ccc(F)cc2)CC1	4115	1	4	5	0	2	5.9
Clc1ccc(-c2nc(-c3cc4cc(Cl)ccc4o3)cs2)cc1	5263	-4	0	-5	·	-3	-0.5
O=C(O)C1=C[C@@H](C2CC2)C[C@@H](OCc2ccc(CO)cc2)O1	4058	·	·	·	-15	0	·
COc1ccc(CCNC(=O)CCS(=O)(=O)c2ccc(Br)cc2)cc1OC	2110	4	9	11	-12	-2	1.7
COc1cc(CN2CCC(n3nccc3NC(=O)C3CC3)CC2)cc(OC)c1	5923	-5	4	5	-20	8	-2.5
COc1ccc(S(=O)(=O)N2CCC(C(=O)NCCC(=O)NCc3ccccc3OC)CC2)cc1	5802	10	-1	8	-14	3	2.1
Cc1ccc2nc(CCCc3nc4ccc(C)cc4[nH]3)[nH]c2c1	3286	2	-10	0	-10	-5	-0.9
O=S1(=O)N=C(N2CCCC2)c2ccccc21	3505	8	10	1	-18	3	2.2
COCCCNC(=O)CN(c1ccc(OC)cc1)S(=O)(=O)c1ccc(NC(C)=O)cc1	5139	9	4	7	-21	-6	2.3
C/C(Cl)=C/Cn1c(SCC(C)C)nc2c1c(=O)[nH]c(=O)n2C	2502	·	-1	·	-21	3	-3.2
CN1CCN(N=Cc2ccc(Cl)c(Cl)c2)CC1	·	-2	3	4	·	·	-6.7
CC(=O)c1ccc(O)c(CC=C(C)C)c1O	4195	·	-8	·	4	4	9.2
CCN(C(=O)CN(C)Cc1cccc(Cl)c1Cl)c1c(N)n(Cc2ccccc2)c(=O)[nH]c1=O	2197	0	5	6	-23	4	3.3
O=C(O)c1ccc(CSC2CCCCC2)cc1	3915	3	9	3	-23	-4	3.0

Profiles from above:
`Cc1ccc2nc(CCCc3nc4ccc(C)cc4[nH]3)[nH]c2c1` in the list: Bead autofluor: 3286; Mtb hypoxia inh growth: 2; ugtP null kill: -10; Mtb hypoxia inh: 0; PrP 5UTR inh: -10; BJeLR lethal: -5; RN4220 kill: -0.9
`COc1ccc(S(=O)(=O)N2CCC(C(=O)NCCC(=O)NCc3ccccc3OC)CC2)cc1` in the list: Bead autofluor: 5802; Mtb hypoxia inh growth: 10; ugtP null kill: -1; Mtb hypoxia inh: 8; PrP 5UTR inh: -14; BJeLR lethal: 3; RN4220 kill: 2.1
`CCN(C(=O)CN(C)Cc1cccc(Cl)c1Cl)c1c(N)n(Cc2ccccc2)c(=O)[nH]c1=O` in the list: Bead autofluor: 2197; Mtb hypoxia inh growth: 0; ugtP null kill: 5; Mtb hypoxia inh: 6; PrP 5UTR inh: -23; BJeLR lethal: 4; RN4220 kill: 3.3

(more compounds)
SMILES	Bead autofluor	Mtb hypoxia inh growth	ugtP null kill	Mtb hypoxia inh	PrP 5UTR inh	BJeLR lethal	RN4220 kill
CCCCNC(=O)CC1N=C2c3ccccc3N=C(SCC(=O)Nc3ccccc3OC)N2C1=O (stereo not given)	3933	2	-1	-10	19	-11	0.8
COc1ccc(NC(=O)C/C(C)=N/NC(=O)c2ccco2)c([N+](=O)[O-])c1	5104	·	·	·	-20	-2	·
CCCn1c(O)c(C=Nc2ccccc2)sc1=S	4917	0	5	1	-48	4	11
COc1cc(-c2noc(C)c2C#Cc2ccc(N)cc2)cc(OC)c1OC	3338	-8	7	-4	65*	23	1.2
CC(C(=O)NCCc1ccccc1)N1c2cccc3cccc(c23)S1(=O)=O (stereo not given)	4673	0	-1	-4	-12	11	2.1
Fc1ccc(/C=N/Nc2cc(N3CCOCC3)ncn2)cc1	3181	·	·	·	-53	1	·
CCc1c(C(=O)NCc2ccccc2Cl)[nH]c(C)c1C(C)=O	5325	6	-12	2	-20	5	-0.7
Brc1[nH]nc2ccccc12	10223	-9	-5	2	-9	-5	2.0
Cn1cccc1CNC(=O)Nc1ccc(Cl)cc1	2378	-11	-1	-8	-74	5	8.7
CCc1c(C(=O)NN2C(=O)C3C4CCC(O4)C3C2=O)csc1C (stereo not given)	2316	3	1	-3	-8	-19	4.0
COc1cc(OC)c(OC)cc1CNC(=O)c1cc(S(=O)(=O)N2CCOCC2)ccc1F	3878	4	-3	-5	9	·	-1.6
COc1cccc(CNc2nc3ccc(C)cc3n3cnnc23)c1	?	0	2	5	-10	1	5.3
COc1ccc(CN2CSC(=S)N(Cc3ccccc3)C2)cc1	4477	-4	17	10	4	-4	11
Cc1ccccc1S(=O)(=O)Nc1cccnc1	4385	·	3	·	-4	-2	6.1
Cn1cc(C=O)c2ccccc21	4060	5	5	17	-15	0	6.8
Cc1[nH]c2ccccc2c1C(=O)C(C)OC(=O)c1ccc([N+](=O)[O-])o1 (stereo not given)	4185	·	6	·	1	17	9.3
O=C(C1CC=CC2CCN(Cc3ccccc3)C(=O)C21)N1CCN(c2ccccc2)CC1 (stereo not given)	·	7	9	13	·	·	2.4
COc1ccc(Cl)cc1S(=O)(=O)N1CCCC1=O	3907	·	·	·	-16	-7	·
CC1CCC(=O)N(C(CC#N)Cc2ccccc2)CC1 (stereo not given)	·	8	3	7	·	·	5.7
O=C(CCNC(=O)c1ccccc1)OCN1C(=O)c2ccccc2C1=O	2544	·	4	·	-5	-1	2.9
O=C(Nc1ccc2c(c1)OCO2)c1ccc(Cl)nc1	3446	10	-10	2	-51	2	0.9
CC1(C)CC2(CCCN(CC(O)(c3ccccc3)c3ccccc3)C2)CCO1 (stereo not given)	4589	7	17	0	-25	0	4.2
Cc1ccc(C(c2nnnn2CC2CCCO2)N2CCN(C(=O)c3ccco3)CC2)cc1 (stereo not given)	2416	·	6	·	0	0	0.9
O=C1/C(=C/c2cccs2)SC(=S)N1c1ccccc1	8652	8	-5	14	-13	-10	6.7
Cn1nc(C(=O)Nc2ccc(Cl)c(S(=O)(=O)N3CCOCC3)c2)c2ccccc2c1=O	3850	12	-11	-8	-14	·	2.1
Cc1cc(C)c(NC(=O)CCCn2c(=O)oc3ccccc32)c(C)c1	·	0	3	11	-20	·	2.2
Cn1cc(C2=C(c3ccc(Cl)cc3Cl)C(=O)NC2=O)c2ccccc21	6409	-1	-20	12	-22	1	-10
O=C(CSc1cccc[n+]1[O-])c1ccccc1Br	3420	21	4	19	-7	6	3.3
COc1ccc(C(=O)c2cnc(N=CN(C)C)s2)cc1	·	4	10	9	·	·	4.7
O=C(NCC(c1ccco1)N1CCCCC1)c1cccs1 (stereo not given)	3806	10	3	-3	-3	·	2.4
CC(=O)Nc1ccc(NC(=O)CSc2ccc(-c3ccc(-n4ccnc4)cc3)nn2)cc1	5763	5	-2	-6	2	7	1.7
NNC(=O)c1cc(Cl)ccc1Cl	2436	7	6	11	-22	7	2.7
COc1ccc(CNC(=O)C/C(C)=N/NC(=O)c2cnccn2)cc1	4417	·	·	·	-40	-4	·
O=C(COC(=O)CCC(=O)c1ccc(Cl)cc1)NCCc1ccccc1	3259	-4	7	4	-43	0	6.3
Cc1cc(=O)oc2c(CN3CCCCC3)c(O)c(Cl)cc12	2952	7	-2	4	-5	-14	-3.3
Cc1cccc(N2CCN(C(=O)c3cc4c(=O)n(C)c5ccccc5c4n3C)CC2)c1C	6072	·	14	·	-6	-2	-1.3
c1ccc(Cn2c(NCc3ccccn3)nc3ccccc32)cc1	3186	3	-1	1	-20	5	-2.3
CSc1nc(Oc2ccc3ccccc3c2)c2sccc2n1	2836	-3	39	12	-43	42	-2.7
O=C(NCc1ccc(N2CCCC2=O)cc1)c1cnccn1	2727	11	4	7	-15	-1	6.3
CCOC(=O)c1c(C)[nH]c(C)c1C(=O)CSc1nc2ccccc2n1CCC#N	7455	3	-4	7	-24	-7	4.3
COc1ccc(C(=O)CSc2nnc(COc3ccc(C#N)cc3)n2-c2ccccc2)cc1	4368	9	-23	9	-2	0	1.8
CC1CCC2(CC1)NC(=O)N(NC(=O)c1cc3ccccc3o1)C2=O (stereo not given)	8265	-2	0	3	-14	·	3.3
COc1ccc(NC(=O)C2CCN(S(=O)(=O)c3ccc(Br)s3)CC2)cc1OC	9367	9	8	8	-15	-4	3.0
O=C(COC(=O)c1ccc2c(c1Cl)C(=O)c1ccccc1C2=O)NC1CC1	1946	1	80	0	-22	0	87*
COc1ccc(-c2cc3c(=O)n(CC(=O)Nc4ccc(C(C)=O)cc4)ncn3n2)cc1	5485	0	-9	-6	-39	4	-6.9

Two entries from above, reformatted:
> O=C(CCNC(=O)c1ccccc1)OCN1C(=O)c2ccccc2C1=O
  Bead autofluor: 2544
  Mtb hypoxia inh growth: ·
  ugtP null kill: 4
  Mtb hypoxia inh: ·
  PrP 5UTR inh: -5
  BJeLR lethal: -1
  RN4220 kill: 2.9

> Cc1cc(C)c(NC(=O)CCCn2c(=O)oc3ccccc32)c(C)c1
  Bead autofluor: ·
  Mtb hypoxia inh growth: 0
  ugtP null kill: 3
  Mtb hypoxia inh: 11
  PrP 5UTR inh: -20
  BJeLR lethal: ·
  RN4220 kill: 2.2

New compounds follow
SMILES	Bead autofluor	Mtb hypoxia inh growth	ugtP null kill	Mtb hypoxia inh	PrP 5UTR inh	BJeLR lethal	RN4220 kill
CC(C)[C@H]1CN=C2N(CCNC(=O)CCC3CCCCC3)[C@H](Cc3ccc(O)cc3)CN21	3512	·	·	·	-8	-12	·
CC1CCN(C(=O)c2ccc(NC3=C(Cl)C(=O)N(Cc4ccccc4)C3=O)cc2)CC1	6183	-1	-4	-9	-9	·	0.0
O=C(Nc1cccc(C(F)(F)F)c1)c1ccc(N2CCNCC2)c([N+](=O)[O-])c1	4311	8	-1	5	-8	7	-3.6
COCCCNC(=O)c1ccccc1NS(C)(=O)=O	4302	4	-5	18	-17	7	6.2
CC[n+]1c(S(=O)(=O)[O-])ccc2ccc(C)cc21	2980	4	5	4	-6	7	5.8
Cc1ccccc1OCC(=O)Nc1ccc2oc(=O)ccc2c1	4273	5	0	5	-34	-1	1.9
CCOC(=O)c1cccc(-[n+]2c(-c3ccccc3)cc(-c3ccccc3)cc2-c2ccccc2)c1	3914	·	12	·	11	9	16
NNC(=O)CSc1nc(-c2ccccc2)nc2c1CCCC2	5110	0	12	5	-24	-1	-1.0
COCCNC(=O)C1CCCN(c2nn3c(=O)cc(C)nc3s2)C1 (stereo not given)	2558	7	4	10	-2	·	-1.1
CCOC(=O)c1c(NC(=O)CSc2nnnn2-c2ccccc2)sc2c1CC(C)(C)NC2(C)C	4549	-11	-10	-2	-13	13	-5.0
Cc1ccc(-c2c(C)c(-c3ccc(F)cc3)nc(N)c2C#N)o1	4082	·	-12	·	2	1	-0.5
Cc1nc(SCC(=O)Nc2ccc(N3CCOCC3)cc2)nc(C)c1C	2377	9	10	6	-10	5	-4.7
